# AID504770: growth inhibitors of E. coli YBA685 in a screen for V. cholerae RctB (chromosome II replication) inhibitors; E. coli YBA685 rctB-dependent plasmid, OD600 growth, 3 h; stronger effect = lower value; z-score (no concentration beside the values); hit rate 0.27% among 130,000;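 active = z-score under -2 on both plates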;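 also: wells of about 30 µL received 100 nL stock; score is relative to mean and SD of the test wells; the first replicate is given; strong numbers were not always called active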
# Ba CapD inh: CapD enzyme inhibition. hit rate 0.23% among 140,000. z-score (concentration not given with the values). purified CapD enzyme, fluorescence intensity read-out; stronger effect = lower value; some hits fall short of the stated cut;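 active = z-score under -4 in either of two replicates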;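 also: stock transfer was 100 nL into about 40 µL; score is relative to mean and spread of the plate; one replicate is shown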
# The depositor's hits bear a star; i = inactive; . = not tested or not shown; & = joins results of further samples. Not all compounds are listed. The share of hits here may be higher or lower than overall.
# Results follow in this order: AID504770	Ba CapD inh
> COc1ccc(C(=O)Oc2c(C)cc(C(O)(C(F)(F)F)C(F)(F)F)cc2C)cc1
  -0.2	0.085
> COCCNC(=O)Cn1cc(/C=C2\C(=O)NC(=O)N(C3CCCCC3)C2=O)c2ccccc21
  -0.2	.
> CC(C)c1ccc(C(=O)CC#N)cc1
  -0.3	.
> Cc1ccc(S(=O)(=O)NC(=O)NCc2ccccc2)cc1
  -0.4	.
> CCCN(CCC)S(=O)(=O)c1ccc(C(=O)NNC(=O)OCCc2ccc(Br)cc2)cc1
  .	9.3
> CC1SC2(CCCCC2)N(c2ccc(Cl)cc2)C1=O (centres undefined)
  0.05	-0.17
> C/C(=N\NC(=O)c1ccc2c(c1)OCO2)c1cc(F)ccc1O
  -0.2	.
> CN1/C(=C/C(=O)C(C#N)C2=NCCC2)C(C)(C)c2ccccc21 (centres undefined)
  -0.45	6.3
> O=C(O)CCCNC(=O)c1ccc2c(c1)OCCO2
  .	-0.095
> CC(C)(C)C(=O)ON=C(c1cccs1)c1cccs1
  -0.6	-0.52
> Cc1ccc(N2CCN(C(=O)c3sc4ncn(CC(=O)Nc5ccc(C)c(Cl)c5)c(=O)c4c3C)CC2C)cc1 (centres undefined)
  .	0.68
> N#CCN1CCN(c2nc3ccc(Cl)cc3s2)CC1
  -0.55	0.1
> Cc1ccc(N2CNC(=O)c3c(C)cc(C)nc32)cc1
  -0.2	.
> COC(=O)c1ccc(Cl)cc1N(CCCC#N)S(=O)(=O)c1cccc(C(F)(F)F)c1
  .	-0.46
> CSc1c(-c2ccccn2)c(N)nn1C(=O)c1cccs1
  1.4	-1.2

# The list continues.
# Results follow in this order: AID504770	Ba CapD inh
> Cn1c(=O)n(Cc2ccccc2F)c(=O)c2c1ncn2Cc1ccccc1
  .	0.74
> COCCSc1ccccc1C(=O)N1CCCC1
  0.35	0.12
> COC(=O)c1sc(N)c(C(=O)OC)c1CSc1nncn1-c1ccccc1
  -0.55	.
> COc1cccc(C(=O)CN2C(=O)/C(=C/c3ccco3)N=C2c2ccccc2)c1
  2.1	-1.4
> CCCCCCCCCCCC(=O)NC1C(OC(C)=O)OC(COC(C)=O)C(OC(C)=O)C1OC(C)=O (centres undefined)
  .	-0.085
> CC(=O)N1C(=O)C2(OCC3(CO2)COC2(OC3)C(=O)N(C(C)=O)c3ccccc32)c2ccccc21 (centres undefined)
  0.05	0.61
> O=C1/C(=C\c2ccco2)N=C(SCn2nnc3ccccc3c2=O)N1c1ccc(OC(F)F)cc1
  0.1	.
> COc1cc(NC(=O)c2cccs2)c(C(=O)O)cc1OC
  .	-1.2
> Cc1nc(SCC(=O)O)oc1C
  -0.5	.
> O=[N+]([O-])c1ccc(Oc2ccc(Cl)cc2Cl)cc1
  .	-0.44
> CCn1c(-c2ccc(C)cc2)cnc1SCC(=O)NCC1CCCO1 (centres undefined)
  -0.35	.
> Nc1c(C(=O)c2ccccc2)sc2nccc(Nc3ccccc3)c12
  0.9	-1.6
> Cc1ccc(NC(=O)CN2C(=O)CCC2=O)c(C(=O)c2ccccc2)c1
  0.4	-0.57
> CC(C)c1cc(NC(=O)COC(=O)c2ccccc2CSc2ncn[nH]2)on1
  0.55	.
> CCOC(=O)/C=C1\SCC(=O)N1Cc1ccc(Br)cc1
  -0.35	.

# Continued.
# Results follow in this order: AID504770	Ba CapD inh
> COC(=O)c1sccc1N/C=C(\C#N)S(=O)(=O)c1ccc(Cl)cc1
  .	-0.01
> COc1cc(C2C3=C(CC(C)(C)CC3=O)Nc3ccccc3N2C(=O)C(C)C)cc(OC)c1OC (centres undefined)
  .	0.41
> COc1cc(NC(=O)c2sc3ncnc(N4CCCCC4C)c3c2C)cc(OC)c1OC (centres undefined)
  .	-1.6
> NC(=O)c1cc2ccccc2oc1=Nc1ccc(Cl)cc1Cl
  -0.1	1.1
> O=C1NC(=O)C(=Cc2cccs2)C(=O)N1
  .	0.26
> O=C(O)C1Cc2ccccc2C1
  1.8	-0.09
> CCCN(CCC)Cn1nc(-c2ccncc2)n(CCCOCC)c1=S
  -0.35	.
> CC(=O)Nc1[nH]c(O)c2ccccc12
  -0.6	-0.015
> COC(=O)c1c[nH]n2c(=O)c3c(nc12)CCN(Cc1ccccc1)C3
  -0.1	2.7
> COc1ccccc1/C=C1\SC(=O)N(CC(=O)N2CCOCC2)C1=O
  -0.6	-0.44
> COc1ccc(C(=O)NCc2nnc(SC)n2Cc2ccccc2)cc1
  -0.85	-0.35
> Cc1nc(COc2cc(C)c(Cl)c(C)c2Cl)cs1
  1.1	0.26
> CC(=O)Nc1ccc(S(=O)(=O)NCC(=O)OC2CCOC2=O)cc1 (centres undefined)
  0.5	.
> CN(C)C(=O)c1c2c(nc3ccccc13)CCCC2
  0.4	-0.48
> CC(C)(C)OC(=O)N1CCCC1C(=O)Oc1ccc2c(=O)c(-c3ccc4c(c3)OCCO4)coc2c1 (centres undefined)
  -0.1	0.67

# (more compounds)
# Results follow in this order: AID504770	Ba CapD inh
> O=C(N[C@@H]1CCCCNC1=O)c1ccc2cc[nH]c2c1
  .	8.9
> CSc1nc2ccccc2n1CC(=O)Nc1c(C)n(C)n(-c2ccccc2)c1=O
  .	0.18
> O=C(COC(=O)Cc1c(F)cccc1Cl)NCc1ccc(Cl)cc1
  -0.7	-0.72
> COC(=O)c1ccc(OC)c(CSc2nnc(COc3cc(C)cc(C)c3)o2)c1
  -0.2	.
> O=C(OCC(=O)c1c[nH]c2ccccc12)c1cccc(S(=O)(=O)N2CCOCC2)c1
  -0.8	.
> CCOC(=O)C1=C(N)Oc2ccccc2C1C(C#N)C(=O)OCC (centres undefined)
  .	14
> Cc1ccc(-c2cc(-c3ccccc3)nc(N)c2C#N)o1
  -0.25	88
> C/C(=N/NC(=O)c1c(N)no[n+]1[O-])c1cccs1
  -0.2	.
> CCOc1ccc2c(c1)C(SCC(=O)N1CCC3(CC1)OCCO3)CC1(CCCCC1)O2 (centres undefined)
  1.6	-0.56
> CC1CC(C)CN(S(=O)(=O)c2ccc(C(=O)Nc3nc4ccc([N+](=O)[O-])cc4s3)cc2)C1 (centres undefined)
  .	-0.23
> CCC(C)N(C(=O)Cn1c(=O)cnc2ccccc21)C1CCS(=O)(=O)C1 (centres undefined)
  0.7	.
> O=C1C2Cc3ccccc3CN2C(=S)N1c1ccccc1 (centres undefined)
  -0.05	.
> CCOc1ncccc1C(=O)OCc1ccc(C(=O)OC)o1
  -1.9	.
> COCCC(=O)N1CCC(Cc2ccccc2)CC1
  .	0.075
> O=S(=O)(CCSc1ccc(C(F)(F)F)cn1)c1ccc(Cl)cc1
  1.9	-0.62

# Next entries follow:
# Results follow in this order: AID504770	Ba CapD inh
> O=C(NC1CCCC1)C1CCCN(S(=O)(=O)c2ccc(-n3cnnn3)cc2)C1 (centres undefined)
  1.1	.
> O=C1N=c2ccccc2=C1c1sc2ccccc2c1O
  0.5	0.48
> C(=N\c1nccs1)/N1CCOCC1
  -0.45	.
> Cc1ccc(-c2nnn(CCC(=O)NC(C)(C)C)n2)cc1
  0	.
> Cc1cccc(NC(=O)N2CCC(c3nc4ccccc4s3)CC2)c1
  .	0.32
> Cc1ccc(C(=O)CSc2ncnc3sc(C)c(C)c23)cc1
  0.5	-0.33
> NC(=O)c1cccc2c(=O)oc3ccccc3c12
  0.15	1.1
> COc1cccc(NC(=O)CSc2nnc(C)o2)c1
  0.65	.
> O=C(O)C1Oc2ccccc2O1
  -1.1	.
> N#CCn1c2ccccc2c2nc3ccccc3nc21
  .	1.1
> CCc1ccc(OCC(=O)Nc2ncn[nH]2)cc1
  -0.8	0.34
> COc1ccc(CC(=O)Nc2sccc2C(N)=O)cc1
  0.65	.
> CCNc1c(NS(=O)(=O)c2ccc(C3CCCCC3)cc2)c(=O)oc2ccccc12
  -0.75	2.3
> CC1CCN(S(=O)(=O)c2cc(S(=O)(=O)N3CCC(C)CC3)c3cccc4c3c2SC4=O)CC1
  -0.45	1.8
> S=c1[nH]c(-c2ccccc2)cn1/N=C/c1ccc2c(c1)OCO2
  1.1	.

# One compound at a time (already shown):
# O=C1N=c2ccccc2=C1c1sc2ccccc2c1O reads AID504770 = 0.5; Ba CapD inh = 0.48
# O=C(O)C1Oc2ccccc2O1 reads AID504770 = -1.1; Ba CapD inh = .
# O=C(NC1CCCC1)C1CCCN(S(=O)(=O)c2ccc(-n3cnnn3)cc2)C1 (centres undefined) reads AID504770 = 1.1; Ba CapD inh = .

# (further entries)
SMILES	AID504770	Ba CapD inh
CCCCC(=O)Nc1ccc2oc(-c3ccc(OC)c(Cl)c3)nc2c1	0.6	34
O=C(O)CSC1=NC2CCCCC2N1 (centres undefined)	-0.55	.
O=C(O)CSc1nccn1Cc1ccccc1	0.3	0.26
Cc1ccc(C(=O)Cn2c(C)[n+](C)c3ccccc32)cc1	-0.7	0.45
Cc1cc(C(=O)Nc2ccc3c(c2)OCCO3)no1	0.95	-0.83
Cc1ccc(C(=O)NNc2nnc(C)c(=O)[nH]2)cc1	0.05	.
CSc1nnc(CCNC(=O)Nc2ccccc2)n1C(C)C	2	.
CNC(=O)c1cccc2cccc(Br)c12	0.6	0.87
CCCS(=O)(=O)c1cnc(SC)nc1N	0.95	0.27
O=C(Nc1ccc(OCc2ccccc2)cc1)N1CCN(C(=O)C2COc3ccccc3O2)CC1 (centres undefined)	-0.05	0.22
COc1ccccc1C1=NOC(C(=O)Nc2ccccc2C(F)(F)F)C1 (centres undefined)	0.6	-0.42
O=[N+]([O-])c1ccc2ncccc2c1-n1cccc1	.	1.6
Clc1cn2ccsc2n1	1.4	.
COc1ccc(C(=O)N2CCc3cc(OC)c(OC)cc3C2C)cc1 (centres undefined)	-0.35	0.61
COC(=O)C1=C(NC(=O)C23CC4CC(CC(C4)C2)C3)CCS1	0.4	i
CN1CCN(c2nnc(NC(=O)Cn3c(=O)oc4ccccc43)s2)CC1	1	0.48
O=C(COc1ccccc1O)N1CCCC1	-1	-0.055
CC(C)NCC(O)Cn1ccc(C(F)(F)F)n1 (centres undefined)	-0.7	-0.67
O=C(NC1C2CC3CC(C2)CC1C3)c1ccc2c(c1)OCO2 (centres undefined)	-1.2	0.43
C=CCSc1nc2[nH]ncc2c(=O)[nH]1	0.05	.
Cc1ccc(S(=O)(=O)N2CCCC(C(F)(F)F)C2)s1 (centres undefined)	-0.25	0.65
COc1cccc(NC(=O)CSc2nc(NCc3ccccc3)c3ccccc3n2)c1	.	0.035
CCOC(=O)c1nnc(Cc2ccc(F)cc2Cl)o1	2.7	0.21
COc1ccc(N2CCN(C(=O)CCc3ccccc3OC)CC2)cc1	-0.1	.
CC(=O)N1CCOc2ccc(S(=O)(=O)NCCc3ccccc3)cc21	-0.4	-0.2
CCCOC(=O)C1=C(C)NC2=C(C(=O)CC(c3ccc(OC)cc3)C2)C1c1cc(OC)c(OC)c(OC)c1 (centres undefined)	.	24
Cc1cc(C)c(NC(=O)C(C)Sc2nnnn2-c2ccccc2)c(C)c1 (centres undefined)	-0.15	-0.22
CC(C)(C)NCC(O)c1cc(O)cc(O)c1 (centres undefined)	0.05	-0.14&-0.11
Cc1nnc(Nc2ccc(C(=O)O)cc2)[nH]c1=O	0.35	.
CCOC(=O)c1sc(-c2ccc3c(c2)OCCO3)cc1N	-2.1	.

# Two of these compounds in another layout.
CCCOC(=O)C1=C(C)NC2=C(C(=O)CC(c3ccc(OC)cc3)C2)C1c1cc(OC)c(OC)c(OC)c1 (centres undefined)
  AID504770: .	Ba CapD inh: 24
Cc1cc(C)c(NC(=O)C(C)Sc2nnnn2-c2ccccc2)c(C)c1 (centres undefined)
  AID504770: -0.15	Ba CapD inh: -0.22

# (listing goes on)
SMILES	AID504770	Ba CapD inh
CC1CCN(CCCNC(=O)c2cc3c(=O)n(C)c4ccccc4c3n2C)CC1	0.25	-1.5
CCOc1ccc2nc(NC(=O)C3CC=CCC3C(=O)OCC(F)(F)C(F)F)sc2c1 (centres undefined)	.	0.35
O=C(O)C1CC1C(=O)N1CCC(n2c(=O)[nH]c3ccccc32)CC1 (centres undefined)	.	-0.51
Cc1ccc2c(c1)C(c1ccccc1)N(C(=O)CC(C)C)CC(=O)N2 (centres undefined)	0.3	-0.62
COc1ccccc1N1C(=O)C2C(c3ccc(F)cc3)NC(Cc3ccccc3)(C(=O)O)C2C1=O (centres undefined)	-1.2	0.43
COC(=O)c1ccc(Cn2cnc3c(cnn3-c3ccccc3)c2=O)o1	0.1	-0.39
O=S(=O)(Nc1nc(SCc2ccc(Cl)cc2)n[nH]1)c1cccs1	-0.25	0.24
O=c1oc2cccnc2n1Cc1ccccc1	-0.95	66
N=c1n(CC(N)=O)c2ccccc2n1Cc1ccc(Cl)c(Cl)c1	0.6	-0.015
O=C(N/N=C/c1c[nH]c2cnc(OCc3ccccc3)cc12)c1cccc(F)c1	.	-0.48
O=C(O)c1ccc(S(=O)(=O)N2CCCCC2)cc1	-1.5	-0.97
N#Cc1cn(CC(=O)NCc2ccccc2)c2ccccc12	0.25	.
O=C(CNC(=O)c1cc(N2CCOCC2)ccn1)Nc1ccc(F)c(F)c1F	-1.8	.
Cc1c(C(=O)N(C)c2ccccc2)sc2nc3n(c(=O)c12)CCCC3	-0.95	-0.97
CCn1c2ccccc2c2cc(CN3CCC(NC(=O)OCc4ccc([N+](=O)[O-])c(OC)c4)C3)ccc21 (centres undefined)	.	0.23
Cc1nonc1C(=O)N/N=C/c1ccccc1	0.7	.
COc1cccc(-n2c(SCC(=O)N3CCN(c4ccccc4OC)CC3)nc3n[nH]c(C)c3c2=N)c1	.	-1.2
O=C(CCc1ccccc1)Nc1nc2ccc(F)cc2s1	-0.85	-0.075
COc1ccc(CCN(C)C(=O)Cn2nnc(-c3ccccc3Br)n2)cc1OC	-1.2	.

# Two records drawn at random from those above, as already listed:
SMILES	AID504770	Ba CapD inh
COc1ccc(CCN(C)C(=O)Cn2nnc(-c3ccccc3Br)n2)cc1OC	-1.2	.
COc1ccccc1N1C(=O)C2C(c3ccc(F)cc3)NC(Cc3ccccc3)(C(=O)O)C2C1=O (centres undefined)	-1.2	0.43
